Compound activity: PubChem, ICCB-Longwood Screening Facility, Harvard Medical School
Ecoli growth: blocks Escherichia coli growth. OD600, 23 h; active compounds read low. 330,000 tested, 0.21% active. OD600 absorbance (no concentration beside the values);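 active = OD600 absorbance below the run mean of sample wells minus 3.6 SD, in any replicate, cut at about 0.56 in these data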;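 also: stock transfer was 300 nL into about 60 µL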
UCH37 DUB inh: inhibitors of human deubiquitinating enzyme UCH37; Q9Y5K5; purified proteasome/UCH37, Ub-AMC cleavage fluorescence; inhibition, % (test concentration not listed); 330,000 tested, 0.33% active;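 active = mean of two replicates above 20%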;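 also: 0% = compound-free wells with enzyme and 100% = wells lacking proteasome; stock transfer was 100 nL into about 20 µL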
Target sequence (Q9Y5K5 whole entry, looked up): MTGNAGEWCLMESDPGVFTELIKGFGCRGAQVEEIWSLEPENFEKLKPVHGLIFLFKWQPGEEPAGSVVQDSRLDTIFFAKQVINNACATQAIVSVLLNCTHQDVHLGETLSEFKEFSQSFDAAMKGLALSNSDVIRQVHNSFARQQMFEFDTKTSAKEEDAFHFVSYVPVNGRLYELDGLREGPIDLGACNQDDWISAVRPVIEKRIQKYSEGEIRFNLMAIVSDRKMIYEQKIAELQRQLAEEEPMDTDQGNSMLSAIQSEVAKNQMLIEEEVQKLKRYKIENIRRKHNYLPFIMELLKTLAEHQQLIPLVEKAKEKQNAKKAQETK
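System: Proteasome-associated human UCH37 deubiquitinase; Input: 0.15 nM proteasome in added enzyme buffer; Also added: Ub-AMC substrate from 1 µM stock; Incubation: 30 min compound-proteasome preincubation then 25 min substrate reaction, room temperature; Detection: fluorescence, ex 355 nm, em 460 nm; Read-out: % inhibition of Ub-AMC cleavage fluorescence; Benchmarks: no-proteasome and no-compound wells.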
Active calls of the source: *; & = joins results of further samples.

Results follow in this order: UCH37 DUB inh	Ecoli growth
- O=[N+]([O-])c1ccccc1/C=C/C=Nn1c(-c2ccccc2F)n[nH]c1=S
  3.7	0.605
- CC(C)(C)c1n[nH]c(=S)n(N=Cc2cccs2)c1=O
  4.0	0.706
- CC(/C=C/c1ccccc1)=NNC(=O)c1ccc2c(c1)OCCO2
  2.2	0.643
- Cc1cc(C)nc(N=C(N)Nc2ccc(S(=O)(=O)O)cc2)n1
  5.0	0.728
- Cc1cc(C)nc(NN=Cc2ccccc2OCc2ccc([N+](=O)[O-])cc2)n1
  5.3	0.721
- CCn1c2ccccc2c2cc(NC(=O)CC(C)=NNC(=O)c3ccccc3N)ccc21
  -199.6	0.663
- O=C(O)CNC(=O)CC1S/C(=N/N=C2CSC(=O)N2)NC1=O (centres undefined)
  4.3	0.699
- CC(Cc1ccccc1)=NNC(=O)CNC(=O)Cc1ccccc1
  1.3	0.645
- N#CCC(=O)NN=Cc1ccccc1OC/C=C/c1ccccc1
  1.1	0.658
- O=C(NN=C/C=C\c1ccco1)c1cccnc1
  19.5	0.702
- Cc1ccc(S(=O)(=O)N=C(c2ccc(F)cc2)N2CCCC2)cc1
  2.4	0.675
- CC(=O)Oc1ccc(C=NNS(=O)(=O)c2ccccc2)cc1
  4.8	0.641
- COc1ccc(C=NNC(=O)c2cccc([N+](=O)[O-])c2)cc1OS(=O)(=O)c1ccc(C)cc1
  4.7	0.697
- Cc1ccc(-c2nn(-c3ccccc3)cc2C=NNC(=O)c2ccncc2)o1
  -110.3	0.622
- Cc1ccc(Cn2cccc2C=NNC(=S)Nc2ccc(C)cc2)cc1
  3.1	0.721
- S=c1[nH]nc(-c2ccncc2)n1N=Cc1cccc(Cl)c1
  5.4	0.635
- Cc1ccc(-c2n[nH]c(=S)n2N=Cc2ccc(C)s2)cc1
  4.3	0.79
- CCOC(=O)c1c(N=Cc2cc(C)ccc2O)sc2c1CCC2
  2.5	0.657
- CSCCC(NC(=O)c1ccccc1)C(=O)NN=C(C)Cc1ccccc1 (centres undefined)
  3.5	0.707
- O=C(NN=Cc1ccc(OC(F)F)cc1OC(F)F)c1ccc(Br)cc1
  0.6	0.653
- O=C(NN=Cc1cn(-c2ccccc2)nc1-c1cccnc1)c1ccccc1
  5.6	0.63
- COc1ccc(C=NNC(=O)c2cccnc2)cc1CN1CCc2cc(OC)c(OC)cc2C1C (centres undefined)
  2.9	0.701
- CC(C)CNC(=O)c1c(N)n(N=Cc2ccccn2)c2nc3ccccc3nc12
  5.3	0.801
- COc1ccc2c(c1)C(=NOC(=O)c1cccs1)CCC2
  5.1	0.715
- CC(CC(=O)Nc1cc(C)ccn1)=NNC(=O)c1ccccc1C
  1.8	0.721
- O=C(NN=Cc1coc2ccc(Cl)cc2c1=O)c1cc(O)cc(O)c1
  -39.2	0.673
- COc1ccc(OC)c(C=NNC(=O)c2ccncc2)c1
  4.1	0.62
- O=C(NN=C1C2CN3CCN(C2)CC1(c1ccccc1)C3)c1ccc(F)cc1
  3.0	0.687
- Cc1ccc(S(=O)(=O)N=C(CCl)N2CCOCC2)cc1
  0.6	0.707
- CC(=O)O[C@H]1[C@H](O)[C@H](Oc2c(O)c(C)c3c4c2[C@@H](C)CC[C@@H]4[C@@H](C)C[C@H]3C=C(C)C)O[C@@H](C)[C@H]1O
  4.0	0.667

As entered above:
Ecoli growth with O=C(NN=Cc1ccc(OC(F)F)cc1OC(F)F)c1ccc(Br)cc1 : 0.653
Ecoli growth with CCOC(=O)c1c(N=Cc2cc(C)ccc2O)sc2c1CCC2 : 0.657
UCH37 DUB inh with CC(CC(=O)Nc1cc(C)ccn1)=NNC(=O)c1ccccc1C : 1.8
Ecoli growth with O=C(NN=Cc1coc2ccc(Cl)cc2c1=O)c1cc(O)cc(O)c1 : 0.673

Going on with the list.
Results follow in this order: UCH37 DUB inh	Ecoli growth
- COc1ccc(C=NOCC(=O)NC(c2ccccc2)c2ccccc2)cc1OC
  1.9	0.696
- CCC(=NNC(=S)Nc1cccc(C)c1)c1ccccc1
  3.4	0.694
- COc1ccc(NN=C(C#N)C(=N)N2CCOCC2)cc1
  11.1	0.609
- COc1ccc(N(CC(=O)NN=Cc2ccc(-c3ccc([N+](=O)[O-])cc3)o2)S(=O)(=O)c2ccc(C)cc2)cc1Cl
  6.6	0.783
- CC1=CC(=NNC(=S)Nc2cccnc2)CC(C)(C)C1
  5.2	0.718
- CN(Cc1c(C(=O)NN=Cc2cccc(O)c2)nnn1-c1nonc1N)c1ccccc1
  1.7	0.649
- O=C(NN=Cc1ccncc1)c1ccccc1O
  6.4	0.7
- CCOC(=O)c1cc(C(O)(C(F)(F)F)C(F)(F)F)c(N=CN(C)C)o1
  1.4	0.725
- COc1ccc(/C=C(/NC(=O)c2ccccc2)C(=O)NN=Cc2ccncc2)cc1
  9.3	0.657
- Nc1nonc1-n1nnc(C(=O)NN=Cc2ccccc2F)c1CN1CCc2ccccc21
  4.9	0.715
- COc1ccc(C=NNC(=O)c2ccc(C)nc2)cc1O
  1.0	0.722
- CN(C)c1ccc(C=NNC(=O)c2ccc3c(c2)OCCO3)cc1
  -8.6	0.721
- CNC(=S)NN=C1CC(c2ccccc2)Oc2ccccc21 (centres undefined)
  0.8	0.637
- Cc1ccc2[nH]c(C)c(C=NNc3nc4ccccc4s3)c2c1
  0.1	0.718
- CC12CCC(C(=O)O)(CC1=NO)C2(C)C (centres undefined)
  4.3&0.5	0.701&0.648
- Cc1ccc(S(=O)(=O)Nc2nc(C)c(C(=O)NN=Cc3ccccc3)s2)cc1
  -2.0	0.654
- CCC(=NNC(=O)c1nnn(-c2nonc2N)c1-c1cccs1)c1ccccc1
  1.8	0.671
- CC(=NN1CCN(c2ccccn2)CC1)c1cccc([N+](=O)[O-])c1
  3.6	0.692
- COc1cc(C=NN=C(N)N)ccc1OCc1ccccc1Cl
  7.2	0.559
- CCOc1cccc(-c2c(C(=O)NN=Cc3ccoc3)nnn2-c2nonc2N)c1
  1.9	0.707
- COCCCNC(=O)C(=O)NN=Cc1ccc(OCC(=O)Nc2cccc(Cl)c2C)c(OC)c1
  2.4	0.665
- CC(=NNC(=O)c1cc([N+](=O)[O-])cc([N+](=O)[O-])c1)c1ccco1
  0.9	0.661
- CC(=NN=C(C)c1ccccc1O)c1ccccc1O
  6.7	0.699
- Cc1ccc(NC(=O)c2cc3ccccc3o2)cc1S(=O)(=O)N(C)C
  0.3	0.731
- Nc1nonc1-n1nnc(C(=O)NN=Cc2ccc3c(c2)OCO3)c1CSc1ccccc1
  -16.7	0.694
- CC(CC(=O)Nc1c(Cl)cccc1C(F)(F)F)=NNC(=O)c1cnccn1
  2.2	0.735
- C(=Nn1cnnc1)c1ccc2c(c1)OCO2
  -10.4	0.709
- C=CCc1c(C)nc(C)nc1NN=Cc1ccccc1
  9.7	0.813
- CC(C)(C)c1ccc(OCC(=O)NN=Cc2cc(Br)ccc2OC(=O)c2ccco2)cc1
  -2.8	0.81
- CC(C)(C)c1cc(C(=O)NN=Cc2ccncc2)n[nH]1
  4.4	0.69
- O=C(NN=C/C=C/c1ccccc1[N+](=O)[O-])c1cc(-c2cccnc2)nc2ccccc12
  3.0	0.707
- CC(=NN1CCN(c2ccc(Cl)cc2)CC1)c1ccco1
  0.6	0.622
- COc1cccc(C=NNC(=O)CCn2cnc3ccccc32)c1
  5.9	0.652
- COCCCNC(=S)NN=Cc1ccc(O)cc1
  4.6	0.613
- CC(=NNC(=O)Cc1c(C)[nH][nH]c1=O)c1ccc(Cl)c(Cl)c1
  1.8	0.684
- COc1ccccc1NS(=O)(=O)c1cccc(C(=O)NN=C(C)c2ccc3c(c2)OCCO3)c1
  2.7	0.688
- COc1ccccc1/C=C/C=Nn1c(-c2ccc(Cl)cc2)n[nH]c1=S
  4.7	0.67
- CN(C)c1ccc(C=NNC(=O)c2ccccc2O)o1
  0.9	0.698
- CCCC1S/C(=N/N=Cc2cccs2)NC1=O (centres undefined)
  8.3	0.776
- CCOC(=O)C(C)C(C)=NNC(=O)CCC(=O)Nc1cc(C)ccc1C (centres undefined)
  0.2	0.698
- COc1ccccc1/C=C/C=NNC(=O)c1ccc2nc[nH]c2c1
  -8.2	0.66
- Cc1ccc(C=NNC(=O)c2csc3c2CCCC3)cc1
  1.1	0.691
- NC(=S)NN=Cc1ccc2cccc(OCc3ccccc3)c2n1
  -250.9	0.648
- CCOC(=O)C1=C(C)N=c2sc(=Cc3ccc(OCC(=O)O)cc3)c(=O)n2C1c1ccc(F)cc1 (centres undefined)
  11.3	0.682
- O=c1[nH]c(=O)c2nnc(NN=Cc3ccc(O)cc3)nc2[nH]1
  4.0	0.702
- S=c1[nH]nc(COc2ccccc2)n1N=Cc1ccncc1
  4.3	0.708
- CC(=NNC(=O)COc1ccc(C)cc1[N+](=O)[O-])c1ccc2c(c1)OCCO2
  5.7	0.695
- CC(=NNC(=O)c1cc(C(C)C)[nH]n1)c1ccncc1
  -0.1	0.645
- CC(=N/N=C1/NC(=O)CC(C(=O)O)S1)c1ccc(F)cc1 (centres undefined)
  2.3	0.633
- CC(C)(C)NC(=O)C=NO
  2.0	0.691
- Cc1cccc(C(=O)NN=Cc2ccccn2)c1
  -0.3	0.648
- CCOc1ccccc1-c1cc(C(=O)NN=Cc2cccnc2)c2ccccc2n1
  2.9	0.706
- C[n+]1ccccc1C1CCCCC1=NNc1ccc([N+](=O)[O-])cc1[N+](=O)[O-] (centres undefined)
  1.0	0.648
- Cc1cc(=O)[nH]c(NN=Cc2ccc(OC(=O)c3cccnc3)cc2)n1
  6.7	0.685
- Cc1cc(C)n(N=Cc2cc([N+](=O)[O-])ccc2O)c(=O)c1
  9.7	0.633
- COC(=O)c1ccc(-c2ccc(C=NNC(=O)CC3(C)OCCCO3)o2)cc1
  -199.7	0.691
- Cc1cc(C(=O)NN=Cc2ccc(Cl)c([N+](=O)[O-])c2)c(C)n1-c1ccc(F)cc1
  0.4	0.645
- CCN(Cc1ccccc1)c1ccc(C=NNS(=O)(=O)c2ccc(C)c([N+](=O)[O-])c2)cc1
  10.3	0.691
- S=c1[nH]nc(-c2ccccc2)n1N=Cc1ccc(-c2ccccc2Cl)o1
  5.6	0.7
- CN1CCN(N=C2C(=O)Nc3ccc([N+](=O)[O-])cc32)CC1
  12.4	0.647

More records follow.
Results follow in this order: UCH37 DUB inh	Ecoli growth
- Cc1cccc(OCC(=O)NCC(=O)NN=Cc2ccccc2)c1
  1.2	0.699
- Fc1ccc(NN=C(c2ccccc2)c2ccccn2)cc1
  3.7	0.654
- Cn1cc(C=NNC(=O)C2COc3ccccc3O2)c2ccccc21 (centres undefined)
  -8.6	0.689
- c1ccc(-c2cnn3c(-c4ccccc4)c(-c4ccccc4)nc3n2)cc1
  -5.6	0.731
- CCOc1cc(C=NNC(=O)c2cccnc2)ccc1OC(=O)c1ccco1
  7.3	0.705
- O=[N+]([O-])c1ccc(NN=C2CCCCC2c2ccccn2)c([N+](=O)[O-])c1 (centres undefined)
  7.4	0.709
- Cc1ccc(S(=O)(=O)NN=Cc2ccc(OC3CSC3)cc2)cc1
  -0.3	0.706
- O=C(Cc1csc(N2CCOCC2)n1)NN=Cc1ccccc1C(=O)O
  -1.3	0.677
- COc1ccc(C(=O)NN=C(c2ccccc2)c2ccccn2)cc1
  4.4	0.68
- CCCC(O)=NS(=O)(=O)c1ccc(N=NN(C)C)cc1
  6.5	0.686
- CCCC(=NNC(=O)c1ccc(CSc2nncn2C)cc1)c1ccccc1
  1.0	0.686
- CCC(=NNc1ccc(Cl)cc1)c1cnnc(SC)n1
  3.1	0.727
- CCCOc1ccc(-c2c(C(=O)NN=C(C)c3ccncc3)nnn2-c2nonc2N)cc1
  2.1	0.697
- CCOc1cc(C=NNC(=O)CN2CCOCC2)ccc1OCc1ccc(Cl)cc1
  2.2	0.765
- CN=C1N(C)C[C@@H]2[C@@H]3C(=O)N(C)C(=O)[C@@H]3[C@](Cc3ccccc3)(C(=O)OC)N12
  4.2	0.702

Shown bar-delimited: 2 of the compounds above.
SMILES | UCH37 DUB inh | Ecoli growth
Fc1ccc(NN=C(c2ccccc2)c2ccccn2)cc1 | 3.7 | 0.654
Cn1cc(C=NNC(=O)C2COc3ccccc3O2)c2ccccc21 (centres undefined) | -8.6 | 0.689

Next section.
Results follow in this order: UCH37 DUB inh	Ecoli growth
- O=C(Nc1ccccc1C(=O)NN=Cc1ccco1)c1ccccc1
  5.2	0.682
- O=C(CCc1n[nH]c(=O)[nH]c1=O)NN=Cc1ccc(Br)o1
  2.9	0.722
- S=c1[nH]ncn1N=Cc1ccc(Br)cc1
  -1.9	0.65
- O=C(NN=Cc1ccc[nH]1)c1ccc(COc2cccc3cccnc23)cc1
  -3.5	0.701
- CC(=O)n1cc(C=NNC(=O)c2ccccc2Cl)c2ccccc21
  4.9	0.691
- CCOC(=O)C(=NNc1ncnc2ccccc12)c1ccc(OC)cc1
  6.0	0.71
- CCOC(=O)C(=NNc1ccccc1)Sc1nnc(CCc2ccccc2)n1-c1ccccc1
  3.6	0.717
- O=C(NN=Cc1cccnc1)c1ccc(O)cc1
  3.4	0.634
- O=C(NCc1ccccn1)C(=O)NN=Cc1ccccc1O
  4.7	0.667

An excerpt; count on the stated rates, not on these rows.
